Assay outcomes deposited in PubChem by National Center for Advancing Translational Sciences (NCATS).
gsp ag = gsp mutant agonism; gsp mutant cells, cAMP HTRF, 30 min; control for the full effect not named in the record; Potency, µM (series often up to 76.9 µM), inactives show top-dose activation (cAMP increase), most hits filed as activators; 340,000 compounds, 0.13% hits; active = well fitted activation curve with a large enough effect; inconclusive = small, poorly fitted or top-dose-only effect, or another doubt; inactive = no such curve, though single readings can be large or run the other way; cell line not stated here;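 note: phosphodiesterase inhibitor Ro 20-1724 added with compounds to block cAMP breakdown; potency is the fitted concentration of half-maximal effect; nearly all actives have a fitted effect of over 60% in size; about a fifth of the inactives were tested at one dose only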
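Cells in DMEM/10% FBS with G418 were pretreated with compounds in DMSO plus […] (300 uM stock) for 30 min at 37C. cAMP was measured by HTRF (cAMP-d2 plus anti-cAMP antibody-K) after 30 min at room temperature.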
CtBP-E1A inh = inhibitors of CtBP/E1A interaction | activity change, % (test concentration not listed) | 340,000 compounds, 0.49% hits | AID 651724 | AlphaScreen GST-E1A/His-CtBP binding, 1536-well; stronger effect = lower value; control for the full effect not named in the record; in the data active means activity change below about -65%; inconclusive means about -30% to -65%; inactive means above about -30%; note: % is set by controls: 0 for no effect and ±100 for the full control effect
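Steps: dispense buffer (Tris pH 8.0, NaCl 300 mM, TCEP 1 mM, BSA, Tween 20); add 5X protein mix (GST-E1A, His-CtBP, 125 nM each); pin 23 nL compound; 2 h at 37 °C, dark; add 5X beads (50 ug/mL); 1 h; read.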
Sfp PPTase inh = blocks B. subtilis Sfp PPTase activity. Q9F4F7. Biochemical Sfp PPTase activity, qHTS. Potency, µM, for the others: max response, negative = inhibition, usual class: inhibitors. 310,000 compounds, 3.5% hits. AID 1490; active = well fitted inhibition curve with a large enough effect; inconclusive = small, poorly fitted or top-dose-only effect, or another doubt; inactive = no such curve, though single readings can be large or run the other way;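 note: the enzyme is Sfp with the accession as filed and its product quenches rhodamine fluorescence; potency is the fitted concentration of half-maximal effect; 0% = enzyme reaction without inhibitor and -100% = no enzyme wells; top concentration of the series not given in the record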
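With Hepes-Na pH 7.6 buffer containing 10 mM MgCl2, Sfp (15 nM) modified BHQ-2-YbbR (12.5 uM) using rhodamine-CoA (5 uM). Two reads 30 minutes apart at 525/598 nm yielded each well's rate.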
Menin MLL FP FL = menin-MLL binding inhibition, fluorescein peptide. 290,000 tested, under 10 active. AID 1766. Fluorescence polarization, fluorescein-MLL peptide displacement from menin. FP activity change, % at 61.4 µM; inconclusive = falling polarisation curve, or a change in total fluorescence; inactive = total fluorescence flat and polarisation flat or rising; no compound was filed as active; the % refers to the polarisation; negative = inhibition;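 note: % of control where 0% means no effect; inhibitors lower the polarisation; unlabelled MLL peptide was the positive control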
gsp antagonist = antagonists of gsp mutant (McCune-Albright syndrome); 340,000 compounds, 0.4% hits; gsp-mutant cells, cAMP HTRF, 30 min; control for the full effect not named in the record; AID 624288; Potency, µM (doses to about 76.9 µM), inactives show at the highest dose activity change, negative = inhibition, most hits filed as inhibitors; active = falling curve of any shape with a large fitted effect; inconclusive = falling curve, mostly with a smaller effect; inactive = flat or rising curve; cell line not stated here;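 note: intracellular cAMP measured with PDE inhibitor Ro 20-1724 present during compound exposure; potency is the fitted concentration of half-maximal effect; % is set by controls: 0 for no effect and ±100 for the full control effect; nearly all actives have a fitted effect of over 65% in size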
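HTRF cAMP read-out (cAMP-d2 plus anti-cAMP antibody-K in lysis buffer, 30 min RT). Before lysis, cells are exposed to compounds with […] for 30 min at 37C in DPBS containing Ca/Mg, BSA and Tween 20.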
TRPV1 potentiator = potentiators of human vanilloid receptor 1 (TRPV1); TRPV1-expressing cells, Fluo-8 calcium influx, capsaicin EC20 potentiation; host cell line not named in the record; control for the full effect not named in the record; potentiation, % at 8.33 µM; 320,000 compounds, 0.02% hits; AID 540277; active means potentiation above 80%; inconclusive means 30% to 80%; inactive means below 30%; note: 0% is about no effect
Target sequence (Q8NER1 whole entry, looked up): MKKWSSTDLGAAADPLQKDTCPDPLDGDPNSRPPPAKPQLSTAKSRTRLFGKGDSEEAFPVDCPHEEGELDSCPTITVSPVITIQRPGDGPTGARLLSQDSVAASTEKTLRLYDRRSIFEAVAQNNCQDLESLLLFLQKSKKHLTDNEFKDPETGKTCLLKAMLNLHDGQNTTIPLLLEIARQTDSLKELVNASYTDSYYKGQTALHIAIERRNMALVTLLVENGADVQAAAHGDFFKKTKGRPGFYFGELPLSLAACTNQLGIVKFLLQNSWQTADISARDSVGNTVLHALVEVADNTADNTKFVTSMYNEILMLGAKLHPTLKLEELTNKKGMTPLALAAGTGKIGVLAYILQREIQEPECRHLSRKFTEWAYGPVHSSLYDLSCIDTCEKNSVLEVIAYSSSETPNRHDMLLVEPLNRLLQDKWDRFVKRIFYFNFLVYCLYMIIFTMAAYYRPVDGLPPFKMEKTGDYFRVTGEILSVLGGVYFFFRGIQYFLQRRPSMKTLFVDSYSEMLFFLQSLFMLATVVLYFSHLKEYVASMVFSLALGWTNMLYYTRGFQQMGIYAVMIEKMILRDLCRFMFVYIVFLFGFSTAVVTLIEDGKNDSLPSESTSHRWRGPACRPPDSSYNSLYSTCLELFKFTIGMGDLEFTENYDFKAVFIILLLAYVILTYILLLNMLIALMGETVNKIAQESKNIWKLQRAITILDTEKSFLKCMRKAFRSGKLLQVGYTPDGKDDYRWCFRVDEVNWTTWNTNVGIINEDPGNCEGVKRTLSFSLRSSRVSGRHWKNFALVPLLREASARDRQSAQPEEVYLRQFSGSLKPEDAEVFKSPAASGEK
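TRPV1-expressing cells were cultured overnight at 35.5C and loaded with Fluo-8 calcium dye for 40 to 90 min at room temperature. After a 10 s baseline, compound was added and calcium influx was read kinetically for 3 min (ex 480/em 520 nm).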
ClpP mod = qHTS Assay for Activators of ClpP. ATP-dependent Clp protease proteolytic subunit (Bacillus subtilis (strain 168)), P80244. 340,000 compounds, 1.9% hits. Potency, µM (doses to about 57.5 µM), for the others: at the highest dose activity change, negative = active. purified B. subtilis ClpP, FRET peptide cleavage, 20 min; active = well fitted falling curve with a large enough effect; inconclusive = small, poorly fitted or top-dose-only effect; inactive = no such curve, though single readings can be large or run the other way; note: potency is the fitted concentration of half-maximal effect; the source files actives as falling curves though it sought activators and does not explain the sign; nearly all actives have a fitted effect of over 65% in size; many hits overshoot -100%
Target sequence (P80244 whole entry, looked up): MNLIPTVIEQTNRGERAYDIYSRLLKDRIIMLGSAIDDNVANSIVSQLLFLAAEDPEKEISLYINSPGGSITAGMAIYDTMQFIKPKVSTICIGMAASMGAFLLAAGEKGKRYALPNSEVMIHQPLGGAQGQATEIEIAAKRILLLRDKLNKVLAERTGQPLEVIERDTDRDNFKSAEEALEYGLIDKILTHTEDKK
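ClpP 10 microg/mL final, pH 8 Tris/KCl buffer with BSA, glycerol, Tween-20; compound pinned in; FRET-FV substrate; RT 20 min; Ex320/Em430; ΔFRET vs ADEP 5.8 microM, DMSO, no enzyme.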
* = called active by the depositor; ? = inconclusive; . = not tested or not shown; & = joins results of further samples; [ ] = dose if it differs, or a comment.

SMILES	gsp ag	CtBP-E1A inh	Sfp PPTase inh	Menin MLL FP FL	gsp antagonist	TRPV1 potentiator	ClpP mod
CCCCN(C(=O)c1ccc2c(c1)OCO2)C1CCS(=O)(=O)C1 (stereo not given)	25.3%[15.4 µM]	4.5	.	.	5.7%	13.8	.
Cc1cc(OC(C)C(=O)NC2CC(C)(C)NC(C)(C)C2)c2c(C)cc(=O)oc2c1 (stereo not given)	17.1%	.	6.0%	.	9.5%	12.6	4.0%
c1ccc(-c2ncc(CN3CCN(c4ccccn4)CC3)[nH]2)cc1	-8.2%	.	-6.5%	2.0	5.1%	.	-0.5%
CC(CNC(=O)c1ccccc1Cl)c1ccccc1 (stereo not given)	8.7%	7.3	15.0%	-1.8	-4.3%	-3.6	0.8%
CCN(C(=O)COC(=O)CNC(=O)c1ccc(C)c(C)c1)C1CCS(=O)(=O)C1 (stereo not given)	?	0.1	-11.6%	-0.5	4.1%	-1.8	0.8%
Cc1c(Cl)cccc1NC(=O)CC1SCCNC1=O (stereo not given)	?	-13.1	15.4%	3.4	4.4%	-3.4	-2.0%
Cc1ccc(S(=O)(=O)N2CCN(C(=O)COC(=O)c3ccccc3OC(F)F)CC2)c(C)c1	10.5%	.	.	.	-15.3%	.	3.9%
O=C(Nc1ccc(N2CCOCC2)cc1)c1cccc(S(=O)(=O)N2CCCCC2)c1	-4.4%[15.4 µM]	5.7	7.9%	3.2	13.2%	9.3	-3.9%
Cc1ccc(NC(=O)N2CCCC2C(=O)NCCc2ccccc2)cc1 (stereo not given)	-14.3%	7.7	16.0%	0.9	7.5%	0.7	0.8%
CCc1cc2c(=O)oc(-c3ccccc3F)nc2s1	9.6%	1.1	10.8%	-3.4	-21.3%	-9.0	0.3%
COCCCNC(=S)Nc1ccc(S(=O)(=O)Nc2cc(OC)nc(OC)n2)cc1	-1.2%	-0.2	-7.6%	-1.0	-12.7%	4.4	1.8%
COc1ccc(-n2c(SCC(=O)Nc3ccc(C)cc3)nc(O)c(Cc3ccccc3)c2=O)cc1	-1.9%[15.4 µM]	3.3	21.0%	-0.1	?	8.9	4.2%
Cc1ccc(C(=O)OC2CCN(c3ccc([N+](=O)[O-])cc3)CC2)cc1	-16.2%	4.5	11.5%	4.9	5.3%	-6.4	0.1%
CC(=O)Nc1ccc(S(=O)(=O)Nc2cc3c(cc2C(C)=O)OCO3)cc1	-8.2%[15.4 µM]	8.6	1.0%	0.7	2.7%	-6.3	.
COc1ccc(Cl)cc1C(=O)Nc1ccccc1N1CCCCC1	-35.2%[inhibitor]	.	-20.8%	2.6	-20.6%	20.5	?
CC(=O)Nc1ccc(C(=O)OCC(=O)N2CCCC2)cc1	4.6%[15.4 µM]	-0.9	12.2%	-0.5	-1.3%	-2.5	.
C/C(Cc1ccccc1)=N\NC(=O)CNC(=O)Cc1ccccc1	-8.8%[15.4 µM]	8.6	4.2%	0.8	10.8%	11.5	1.5%
CC1CCCCN1C(=O)COC(=O)c1ccc2c(c1)C(=O)N(Cc1ccco1)C2=O (stereo not given)	-23.8%	-10.2	.	.	-10.1%	-2.2	-1.5%
COc1ccc(C2CC(c3ccccc3)=NN2C(=O)COC(=O)c2nc3nc(C)cc(C)n3n2)cc1 (stereo not given)	-19.7%[15.4 µM]	-10.9	-26.9%	5.9	-19.5%	12.2	.
COC(=O)c1sccc1NC(=O)CSCCc1ccccn1	-2.7%	2.2	17.6%	-4.1	10.0%	1.0	.
CCc1nc2ccc(C(=O)NCc3ccc(C)o3)cc2nc1CC	-3.6%	-8.1	4.8%	.	-7.2%	28.7	-1.1%
Cc1ccc(NNC(=O)c2cc(C(C)(C)C)nn2Cc2ccccc2)cc1	-9.4%[15.4 µM]	-9.4	8.6%	2.0	-9.9%	.	-3.2%
O=C(O)CCCC(=O)N1CCN(c2cccc(Cl)c2)CC1	-1.7%	6.1	-15.2%	-1.3	-1.7%	-7.8	-6.0%
O=S(=O)(Cc1ccc(Cl)cc1)N1CCCCCC1	6.7%	13.5	14.5%	.	7.5%	-14.6	-2.4%
COc1cccc(-c2nc(CS(=O)(=O)CC(=O)NC3CC3)c(C)o2)c1	-10.4%	3.2	9.5%	.	5.0%	17.0	-12.9%

(next part)
SMILES	gsp ag	CtBP-E1A inh	Sfp PPTase inh	Menin MLL FP FL	gsp antagonist	TRPV1 potentiator	ClpP mod
Cc1oc(C(C)(C)C)cc1C(=O)N1CCN(C(c2ccccc2)c2ccccc2)CC1	15.1%[15.4 µM]	-0.4	-6.1%	1.2	?	1.3	.
COCCN(C(=O)Cc1cccs1)c1nnc(-c2cccnc2)s1	-24.0%	-1.8	3.9%	-1.6	-10.0%	6.1	-10.1%
COc1ccc2nc(SCC(C)=O)c(C#N)cc2c1	?	-1.6	18.3%	?	-3.5%	-17.1	.
CCOC(=O)CSc1cc(C(F)(F)F)nc(-c2ccccn2)n1	6.0%	0.5	25.0%	1.3	6.3%	14.1	-2.6%
Cc1cccc(-n2ncc3c2CCCC3NC(=O)C2(C(N)=O)CC2)c1C (stereo not given)	-61.6%[inhibitor]	-3.8	1.2%	.	-0.3%	-10.6	1.9%
COc1cc(CCC(=O)OCC(=O)Nc2cccc(S(=O)(=O)N(C)C)c2)cc(OC)c1OC	15.7%	6.7	8.4%	.	-1.2%	14.8	-1.4%
COCCOc1nc2c(c(=O)n(C)c(=O)n2C)n1CCc1ccccc1	0.7%	2.7	-0.5%	-0.4	-14.8%	7.4	0.4%
CN(C)CCNC(=O)c1c(O)c2c([nH]c1=O)CCCC2	-34.7%[inhibitor]	3.2	9.2%	3.3	3.3%	-2.5	-10.5%
CC1NC(=O)NC1CCCCCC(=O)Nc1ccc(F)cc1 (stereo not given)	-10.2%[15.4 µM]	7.7	8.9%	1.1	3.0%	14.1	0.3%
CCOc1ccc(NC(=O)CCNS(=O)(=O)c2cccs2)cc1	-0.7%	6.8	3.3%	3.8	5.0%	2.3	-0.9%&-8.5%
COc1cc(C2NC(=O)NC(C)=C2C(=O)OC2CCC(C)CC2)ccc1O (stereo not given)	8.3%	-9.1	12.9%	6.1	-1.1%	-10.7	0.2%
Cc1ccc(NC(=O)CN2CC(C)SC2=NC2CCCCC2)cc1 (stereo not given)	25.3%&1.4%	-13.2&3.1	-22.0%	5.3	8.1%&-1.0%	5.1	0.8%
Cc1ccnn1CC(=O)N/N=C/c1cn[nH]c1-c1ccccc1	-23.4%[15.4 µM]	-8.9	12.9%	?	6.4%	-10.8	-0.4%
COC(=O)CCC(=O)OC1(C)C(=O)C2=CN(c3ccc(OC)cc3)C(c3ccc(OC)cc3)=CC2=C(Br)C1=O (stereo not given)	.	-18.4	0.6%	2.9[11.7 µM]	-16.2%	.	-0.2%
Cc1ccc(-c2ccc(/C=N/N3C(=O)C4C5C=CC(C6CC56)C4C3=O)o2)c([N+](=O)[O-])c1 (stereo not given)	13.2%	-23.8	6.9%	-1.3	?	-11.7	-1.6%
Nc1nc(NCc2ccccc2)nc(Nc2ccc(F)cc2)c1[N+](=O)[O-]	7.7%	-3.7	7.0%	1.7	7.1%	9.8	0.1%
Cc1ccc(C(CNS(=O)(=O)c2ccccc2)N2CCN(C)CC2)cc1 (stereo not given)	10.1%	5.2	.	.	1.6%	-3.9	1.1%
Cc1ccc(S(=O)(=O)ON2C(=O)c3cccc4cccc(c34)C2=O)cc1	-8.0%	.	-6.2%	-5.5	-28.8%	2.5	3.3%
CCCn1c(SCC(=O)N2CCCC2=O)nc2ccccc2c1=O	-1.5%	-7.7	.	.	-11.3%	-18.6	-2.5%
Cc1cc(C)n2nc(SC(C)C(=O)N3CC(C)OC(C)C3)nc2n1 (stereo not given)	33.6%	-8.9	.	.	6.3%	.	-16.4%
Cn1c(SCC(=O)NC2CCCCC2)nnc1-c1ccccc1O	13.5%	-1.7	-4.9%	.	3.2%	-6.0	0.4%
COc1ccc(NC(=O)/C=C/c2ccc(C)o2)cc1S(=O)(=O)N1CCOCC1	-0.4%	-17.1	50.1µM*	5.7	3.3%	-10.4	-0.9%
CCOC(=O)COc1ccc(S(=O)(=O)NC2CC2)cc1	-0.4%[15.4 µM]	0.8	9.5%	-0.1	5.1%	6.4	0.4%
C=CCOc1ccc(/C=N/O)cc1Cl	2.9%	10.7	6.5%	7.4	7.1%	-1.9	-1.3%
COc1cccc(CNC(=O)COC(=O)CNC(=O)c2ccc(-c3ccccc3)cc2)c1	7.7%	.	.	.	-25.3%	10.4	-1.4%
N/C(COc1ccc(Cl)cc1)=N\NS(=O)(=O)c1ccccc1	-41.4%	2.1	26.6%	0.7	7.4%	5.4	0.8%

In the list so far, 2 contain a tert-butyl group.
SMILES	gsp ag	CtBP-E1A inh	Sfp PPTase inh	Menin MLL FP FL	gsp antagonist	TRPV1 potentiator	ClpP mod
Cc1ccc(NNC(=O)c2cc(C(C)(C)C)nn2Cc2ccccc2)cc1	-9.4%[15.4 µM]	-9.4	8.6%	2.0	-9.9%	.	-3.2%
Cc1oc(C(C)(C)C)cc1C(=O)N1CCN(C(c2ccccc2)c2ccccc2)CC1	15.1%[15.4 µM]	-0.4	-6.1%	1.2	?	1.3	.

Complete entries from above. Values in the order: gsp ag | CtBP-E1A inh | Sfp PPTase inh | Menin MLL FP FL | gsp antagonist | TRPV1 potentiator | ClpP mod
Cc1ccc(NC(=O)CN2CC(C)SC2=NC2CCCCC2)cc1 (stereo not given) is entered as 25.3%&1.4% | -13.2&3.1 | -22.0% | 5.3 | 8.1%&-1.0% | 5.1 | 0.8%
COc1ccc(Cl)cc1C(=O)Nc1ccccc1N1CCCCC1 is entered as -35.2%[inhibitor] | . | -20.8% | 2.6 | -20.6% | 20.5 | ?
COc1ccc(-n2c(SCC(=O)Nc3ccc(C)cc3)nc(O)c(Cc3ccccc3)c2=O)cc1 is entered as -1.9%[15.4 µM] | 3.3 | 21.0% | -0.1 | ? | 8.9 | 4.2%
CCOc1ccc(NC(=O)CCNS(=O)(=O)c2cccs2)cc1 is entered as -0.7% | 6.8 | 3.3% | 3.8 | 5.0% | 2.3 | -0.9%&-8.5%
COc1ccc(NC(=O)/C=C/c2ccc(C)o2)cc1S(=O)(=O)N1CCOCC1 is entered as -0.4% | -17.1 | 50.1µM* | 5.7 | 3.3% | -10.4 | -0.9%
